RN4220 kill: S. aureus RN4220 growth inhibition; OD600, 16 h; inhibition, % (test concentration not listed); 330,000 compounds, 0.33% hits; AID 1259311;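 active = z-score of -3 or lower and OD600 up to 0.18 on both plates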;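 also: plate controls were untreated cells for no effect and reference antibiotic for full effect; stock transfer was 100 nL into about 80 µL; one replicate is shown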
BJeLR viability: kills HRASV12-expressing BJeLR cells. BJeLR (HRASV12) viability, CellTiter-Glo ATP luminescence, 48 h; reference of the scale not given here. 300,000 compounds, 0.17% hits. inhibition, % (concentration not given with the values);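 active = replicate mean above 50%; inconclusive = above 50% but judged a plate artefact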;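 also: 50 nL library stock added to about 25 µL; numbers are from one replicate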
Mtb hypoxia inh: Mtb hypoxia fluorescent reporter inhibition; 300,000 compounds, 0.1% hits; fluorescence inhibition, % (no concentration beside the values); M. tuberculosis hypoxia-regulated fluorescent reporter, fluorescence;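 active = 35 to 45% if threefold the growth effect, above 45% if 1.5-fold the growth effect; inactive = the rest, general growth blockers included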;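 also: wells of about 50 µL received 100 nL stock; 0% = vehicle wells and 100% = reference inhibitor wells; whole bacteria with a GFP reporter of the hypoxia response; strong numbers were not always called active; many hits fall short of the cut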
Autofluor counter: counter-screen for toxin protease inhibitors: compound fluorescence; compound autofluorescence counterscreen, microsphere flow cytometry; hits give high values; 360,000 compounds, 3.1% hits; AID 624483; fluorescence intensity (concentration not given with the values);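 active = at least 3 SD above the mean of all compounds, about 16000 in these data; inconclusive = too few beads counted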;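 also: 100 nL of 1 mM stock went into each well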
Sa ugtP lethal: compounds lethal to S. aureus RN4220 ugtP deletion mutant; AID 1259309; growth inhibition, % (test concentration not listed); OD600 growth, 16 h; some inactives read as strong as hits; 330,000 compounds, 0.54% hits;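 active = z-score under -3 and OD600 up to 0.15 on both plates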;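 also: plate controls were untreated wells for no effect and antibiotic for full effect; wells of about 80 µL received 100 nL stock; the first replicate is given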
PrP UTR inh: inhibition of PrP 5' UTR reporter expression; inhibition, % (test concentration not listed); AID 488862; 340,000 compounds, 0.35% hits; cell-based PrP 5' UTR mRNA reporter, plate reader;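 active = every replicate at 50% or more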;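 also: 0 = median of the neutral control wells; tested in H4 reporter cells; numbers are from one replicate; inactives centre near -14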
Mtb hypoxia inh growth: recorded beside Mtb hypoxia inh, whose call it bears; growth inhibition, %; measured here: M. tuberculosis growth (absorbance);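 0% = vehicle and 100% = reference antibiotic; read after six days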
Numbers without * were called inactive; ? = inconclusive; · = no result given.

SMILES	RN4220 kill	BJeLR viability	Mtb hypoxia inh	Mtb hypoxia inh growth	Autofluor counter	Sa ugtP lethal	PrP UTR inh
CC(=O)Nc1ccccc1-c1nc2ccc(C(=O)N3CCN(c4cccc(C)c4)C(C)C3)cc2[nH]c1=O (stereo unspecified)	1.2	5	-1	8	5342	4	-23
CCn1c(CSc2nc3ccccc3s2)nnc1SCC(=O)c1ccc2c(c1)OCCO2	4.9	3	8	0	4130	-17	-25
Cc1nn(CC(=O)Nc2nnc(CC(=O)N3CCCC3)s2)c(=O)c2ccccc12	4.5	0	·	·	3450	8	-10
CCCCN(C)CCCNC(=O)C1(O)c2ccccc2NC(=O)N1c1ccc(Cl)cc1 (stereo unspecified)	1.3	-5	14	4	3963	3	-7
CC(=O)Nc1ccc(Nc2c([N+](=O)[O-])c(=O)n(-c3ccccc3)c3ccccc23)cc1	-2.1	4	10	-7	3934	3	-65
COc1ccc(C2CC(=O)C=C(c3ccc(Cl)c(C(F)(F)F)c3)C2)cc1 (stereo unspecified)	-6.8	·	11	4	·	53	·
NC(N)=N/N=C/c1ccccc1OC(F)F	·	-18	·	·	4242	·	-8
CCOc1ncccc1C(=O)OCC(=O)Nc1cc(C(C)(C)C)ccc1OC	7.5	·	1	4	?	8	-12
Cc1ccc(-c2nn(CC(=O)NCCN3CCOCC3)c(=O)c3ccccc23)cc1	4.4	-2	·	·	2187	-7	-21
O=C(N/N=C\c1ccc(Sc2ccccn2)o1)c1cccc(Br)c1	·	-9	·	·	9206	·	-11
CC1CCCC(NC(=O)c2ccc3c(c2)NC(=O)CS3)C1C (stereo unspecified)	0.8	4	9	9	5875	-1	-6
O=C1C=C(NC(=O)Nc2ccc(Cl)c(Cl)c2)CCC1	100*	1	6	10	4571	100*	-32
COc1cccc(CN(C)C(=O)Nc2cccc(C(F)(F)F)c2)c1OC	2.7	-8	6	-2	8155	-5	-71
Cc1ccc(C)c(N2CCN(C(=O)CCc3nc(-c4ccc(Cl)cc4)no3)CC2)c1	-5.4	·	-4	6	3733	8	-34
CCCNC(=O)C1CN(S(=O)(=O)c2ccc(C)cc2)c2ccccc2O1 (stereo unspecified)	1.0	-1	-16	-8	3563	2	2
Cc1ccc(NC(=O)c2ncc(Cl)c(Cl)c2Cl)cc1C	-1.3	5	5	2	4319	1	-88
CC/C(=N/NC(=O)c1ccc(Br)o1)c1ccc(Cl)cc1	·	9	·	·	8200	·	-18
CC(=O)Nc1ccc(C(=O)NN=Cc2cccnc2)cc1	2.1	·	13	-1	·	1	·
CCOC(=O)c1ccc(N=c2ssnc2Cl)cc1	8.0	3	6	4	4493	7	-11
CCc1ccc(CNc2ccc3c(c2)ncn3C(C)(C)C)cc1	3.2	0	5	7	3629	15	-36
CC(C)Nc1ccc(C(CC(N)=O)NC(=O)Cc2cccc3ccccc23)cc1[N+](=O)[O-] (stereo unspecified)	1.1	-2	8	3	4270	8	-13
CNc1snc(C)c1C(=O)OCC(=O)NCc1ccccc1OC	2.9	·	17	15	3531	-3	-14
COc1ccc2c(c1)CCCC2=NNC(=O)c1ccoc1C	2.0	·	9	2	·	3	·
Cc1ccc(C(C)C)cc1OCC(=O)N1CCN(C(=O)c2ccco2)CC1	2.6	-1	-7	-1	5872	-3	15
CCOc1cc(C=NNC(=O)CSc2nncn2C)ccc1OC(=O)c1ccc(Cl)cc1	2.0	·	-8	-6	·	-5	·
CCOc1ccc(OCCC(=O)OCC(=O)NC2CC2)cc1	3.8	6	6	-3	?	7	-6
Cn1c(=O)oc2cc(S(=O)(=O)NCc3ccc(Cl)cc3)ccc21	5.0	-2	3	-2	5052	7	-27
Cc1cc(C)cc(NC(=O)CSc2nnnn2-c2cccnc2)c1	6.5	-8	1	-6	5490	4	-14
CC(C)CN(C(=O)C1CC1)C1CCS(=O)(=O)C1 (stereo unspecified)	2.7	8	10	-3	6049	1	-8
Cc1cccnc1-n1c(CCN2C(=O)c3ccccc3C2=O)nc2ccccc2c1=O	2.0	-6	·	·	3446	2	-6
COc1cc(C=C(C(C)=O)C(C)=O)ccc1O	5.9	9	-3	6	3454	-3	10
COc1cc(C2C(C(=O)c3ccc(C)o3)=C(O)C(=O)N2c2cc(C)on2)ccc1OCc1ccccc1 (stereo unspecified)	18	-1	7	-2	4079	37	0
CCOC(=O)CNC(=O)c1cc(OC)cc(OC)c1	2.2	2	4	9	2511	6	-2
Cc1ccc(-c2nc(CN(C)C3CCOCC3)c(C)o2)s1	2.5	9	1	5	3478	9	-13
CCOC(=O)CC(NC(=O)C(CC)c1ccccc1)c1ccccc1Cl (stereo unspecified)	0.2	6	12	7	7684	-9	-4
CCS(=O)(=O)N1CCC(C(=O)Nc2cc(Cl)ccc2O)CC1	11	2	-88	-20	6836	-9	-11
O=C(NCCc1ccccc1)c1cccnc1	-0.3	-3	·	·	3365	6	-46
Cn1c(=O)c(C#N)c(-c2ccccc2)n2cnnc12	0.3	0	0	0	10102	-2	2
CC(=O)NCCc1ccc(C(=O)COC(=O)c2cc(C)oc2C)cc1	5.8	·	18	9	4378	7	-35
CCCc1sc(NN=Cc2ccccn2)nc1-c1ccc(Br)cc1	11	·	8	-2	·	-11	·
CC1CN(C(=O)COC(=O)c2ccc(F)cc2Cl)CC(C)O1 (stereo unspecified)	1.2	-18	16	-2	2878	2	-17
COC(=O)c1ccc(C)c(NC(=O)Cc2ccc([N+](=O)[O-])cc2)c1	1.5	-5	-12	3	·	0	·
O=C(c1ccc(-c2ccccc2)cc1)N1CCC(C(=O)N2CCCC2)CC1	6.4	-2	13	8	4616	-3	-15
O=C(CSc1nc(O)cc(=O)n1-c1ccccc1)c1ccc(Br)cc1	7.5	-19	-2	2	5151	0	-22
COc1ccc(C)cc1S(=O)(=O)N(C)CC(=O)Nc1ccc2c(c1)OCCO2	2.6	9	10	4	6955	8	-27
Cc1cccc(/C=N/n2c(C3CCCCC3)n[nH]c2=S)c1	·	-1	·	·	2901	·	-8
COc1cc(N2C(=O)CSC23C(=O)Nc2ccccc23)cc(OC)c1OC (stereo unspecified)	4.4	5	·	·	4800	4	-18
N#Cc1c(-c2ccncc2)c2c([nH]c1=S)CCCC2	0.1	2	·	·	2746	-3	-23
CC1(C)CC(=O)C=C(NCCCNC2CCCCC2)C1	2.6	-7	6	8	16370*	4	-3
COc1cc(/C=C/c2nc3ccccc3c(=O)n2-c2cccc(O)c2)ccc1O	99*	1	4	-1	3477	99*	-3
CCC1CCCCN1Cc1ccc(N)cc1 (stereo unspecified)	3.6	·	12	7	4121	6	-19
Cc1ccc(C(C)C)c(OCc2nc(-c3nonc3N)no2)c1	9.6	-1	7	4	5382	9	-52
NC(=O)CCC(=O)N1CCCC(C(=O)c2ccc(C(F)(F)F)cc2)C1 (stereo unspecified)	2.0	-6	2	-1	2890	12	-18
Cc1cc(C)c(S(=O)(=O)N2CCCOC2CNC(=O)C(=O)NCc2ccncc2)c(C)c1 (stereo unspecified)	3.4	6	-4	-9	2550	1	-18
CN(C)c1cc(N)c2ccccc2n1 (tested in a mixture with another compound)	1.6	-2	7	1	3363	3	-4
COc1ccccc1NC(=O)N1CCN(C(=O)Nc2ccccc2OC)CC1	5.8	0	10	5	4452	4	-10
Cc1nnsc1-c1onc(C)c1C(=O)ON=Cc1ccc(Cl)cc1	-2.3	·	-6	7	·	-2	·
Cc1cccc(Nc2c(-c3ccc(N4CCOCC4)cc3)nc3ncccn23)c1	1.1	-8	3	3	5741	7	-9
Cc1cccc(NC(=NS(=O)(=O)c2ccccc2)c2ccccc2)n1	-0.3	·	-5	3	·	-2	·
CCOC(=O)CNC(=O)C1(/C=C/c2ccccc2)CC(=O)N1c1ccc(OC)cc1 (stereo unspecified)	-0.9	-16	-3	0	3316	13	-21

(cont.)
SMILES	RN4220 kill	BJeLR viability	Mtb hypoxia inh	Mtb hypoxia inh growth	Autofluor counter	Sa ugtP lethal	PrP UTR inh
O=C1CCCC(=NNC(=O)c2ccc(COc3ccccc3-c3ccccc3)cc2)C1	-3.9	·	4	6	·	1	·
O=C(Nc1cc(N2CCCCC2)ncn1)c1ccc(F)cc1	19	-2	15	9	2442	37	-54
CCOC(=O)c1c(NC(=O)Cn2nnc(-c3ccccc3Cl)n2)sc(C)c1C	9.2	-1	·	·	2118	1	-19
CCOc1ccc(NC(=O)CN2CCN(CC(=O)Nc3ccc(OC)cc3)CC2)cc1	0.6	-15	-9	0	8730	-1	-14
CS(=O)(=O)c1ccc(N2CCN(S(=O)(=O)c3cccs3)CC2)c([N+](=O)[O-])c1	4.0	·	-1	4	?	1	-19
CCC(=O)Nc1nnc(S(=O)(=O)N(CC)c2ccc(OC)cc2)s1	2.1	8	-5	-6	3077	-2	1
O=C(COC(=O)CCCNC(=O)c1ccc(Cl)cc1)Nc1cc(Cl)c(Cl)cc1Cl	4.3	-4	0	8	2340	10	-16
COc1ccc(CCNC(=O)C2C3CCC(C3)C2C(=O)O)cc1OC (stereo unspecified)	5.4	-3	3	-3	4077	10	-8
CCC(C)[C@H](NC(=O)Nc1ccc(Oc2ccccc2)cc1)C(=O)O (stereo partly specified)	-5.8	8	5	8	3016	-9	-24
CCN(CC)CCN1C(=O)c2oc3ccc(F)cc3c(=O)c2C1c1ccncc1 (stereo unspecified)	-12	-7	3	9	5086	-5	-8
Cc1ccc(NS(=O)(=O)c2ccc3c(c2)NC(=O)CO3)c(C)c1	27	-7	3	-1	5095	-6	-1
Clc1ccc(-c2noc(COc3ccccc3)n2)cc1	4.9	3	-2	-1	22341*	16	-15
Cc1ccc(N2CC(C(=O)Nc3nnc(SCc4ccccn4)s3)CC2=O)cc1 (stereo unspecified)	-0.8	1	-4	4	5018	6	-19
CC1Cc2ccccc2N1C(=O)CN1C(=O)NC(C)(CCc2ccccc2)C1=O (stereo unspecified)	2.1	4	4	-3	4556	4	-4
Cc1ccc(NC(=O)CN2C(=S)NC(C)(C)CC2C)cc1Cl (stereo unspecified)	8.7	·	11	14	3834	6	-8
CCCCNC(=O)CCn1c(=O)c2ccccc2n(Cc2ccc(F)cc2)c1=O	2.1	-1	1	-7	2738	11	0
CCC(=O)c1ccc(OC)c(OC)c1O	3.0	9	-1	-8	3764	0	-13
COc1cc(C)c(NC(=O)C(=S)N2CCCC2)cc1C	2.8	3	-12	4	4103	-71	-13
O=C(Nc1cc(S(=O)(=O)N2CCOCC2)ccc1N1CCCC1)c1cnccn1	2.0	-5	2	9	2602	1	-66
CN(C)C1=NC[C@H](Cc2ccccc2)N1CC1CCC(C(C)(C)C)CC1 (stereo partly specified)	·	7	·	·	4303	·	-29

A second format for some results above:
Every second line gives: RN4220 kill | BJeLR viability | Mtb hypoxia inh | Mtb hypoxia inh growth | Autofluor counter | Sa ugtP lethal | PrP UTR inh
CCN(CC)CCN1C(=O)c2oc3ccc(F)cc3c(=O)c2C1c1ccncc1 (stereo unspecified)
 : -12 | -7 | 3 | 9 | 5086 | -5 | -8
Cc1ccc(NS(=O)(=O)c2ccc3c(c2)NC(=O)CO3)c(C)c1
 : 27 | -7 | 3 | -1 | 5095 | -6 | -1
Clc1ccc(-c2noc(COc3ccccc3)n2)cc1
 : 4.9 | 3 | -2 | -1 | 22341* | 16 | -15
Cc1ccc(N2CC(C(=O)Nc3nnc(SCc4ccccn4)s3)CC2=O)cc1 (stereo unspecified)
 : -0.8 | 1 | -4 | 4 | 5018 | 6 | -19
CC1Cc2ccccc2N1C(=O)CN1C(=O)NC(C)(CCc2ccccc2)C1=O (stereo unspecified)
 : 2.1 | 4 | 4 | -3 | 4556 | 4 | -4

(cont.)
SMILES	RN4220 kill	BJeLR viability	Mtb hypoxia inh	Mtb hypoxia inh growth	Autofluor counter	Sa ugtP lethal	PrP UTR inh
COc1ccc(CCNC(=O)C(=O)NCC2OCCN2S(=O)(=O)c2ccc(F)cc2)cc1 (stereo unspecified)	-14	-10	-1	16	6339	-10	-7
O=C(NNC(=O)C12CC3CC(CC(C3)C1)C2)c1ccccc1F	0.0	-16	-10	-1	5442	4	-21
O=C(Nc1ccc2oc(-c3ccccc3)nc2c1)c1ccncc1	1.2	8	·	·	2606	0	-33
Cc1cc(C(=O)N/N=C/c2cc(Br)cc([N+](=O)[O-])c2O)c2ccccc2n1	·	-7	·	·	1965	·	-12
CCOCCn1c(=O)c2c(nc3n2CC(C)CN3Cc2ccccc2)n(C)c1=O (stereo unspecified)	3.2	-3	16	8	5220	8	-5
COc1cccc(NC(=S)NC(=O)c2cncc(Br)c2)c1	4.6	5	3	10	·	23	-54

Bioassay records from PubChem.
